Assay outcomes from PubChem.
Six1-Eya2 inh: blocks human Six1 binding to Eya2; Q15475+O00167; AlphaScreen GST-Six1/His-Eya2 binding, biochemical; stronger effect = lower value; control for the full effect not named in the record; activity change, % (concentration not given with the values); 0.56% of 360,000 active; AID 651725; in the data active = activity change below about -65%; inconclusive = about -30% to -65%; inactive = above about -30%; also: % is scaled to controls: 0 for no effect and ±100 for the full control effect
Target sequence (O00167 whole entry, looked up): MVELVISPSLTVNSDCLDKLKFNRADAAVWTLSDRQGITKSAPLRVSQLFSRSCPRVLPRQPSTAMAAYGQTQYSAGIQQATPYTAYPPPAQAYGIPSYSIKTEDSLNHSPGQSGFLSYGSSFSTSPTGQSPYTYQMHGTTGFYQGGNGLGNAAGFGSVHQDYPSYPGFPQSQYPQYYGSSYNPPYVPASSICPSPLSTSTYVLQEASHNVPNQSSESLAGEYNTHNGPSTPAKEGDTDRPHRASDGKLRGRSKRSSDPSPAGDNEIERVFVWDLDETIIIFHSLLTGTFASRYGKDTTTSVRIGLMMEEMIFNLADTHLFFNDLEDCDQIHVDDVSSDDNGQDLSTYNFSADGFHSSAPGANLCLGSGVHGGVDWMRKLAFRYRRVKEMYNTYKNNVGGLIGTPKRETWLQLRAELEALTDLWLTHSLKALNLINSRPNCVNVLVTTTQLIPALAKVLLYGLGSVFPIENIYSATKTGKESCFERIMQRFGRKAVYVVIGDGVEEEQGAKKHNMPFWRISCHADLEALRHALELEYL
Target sequence (Q15475 whole entry, looked up): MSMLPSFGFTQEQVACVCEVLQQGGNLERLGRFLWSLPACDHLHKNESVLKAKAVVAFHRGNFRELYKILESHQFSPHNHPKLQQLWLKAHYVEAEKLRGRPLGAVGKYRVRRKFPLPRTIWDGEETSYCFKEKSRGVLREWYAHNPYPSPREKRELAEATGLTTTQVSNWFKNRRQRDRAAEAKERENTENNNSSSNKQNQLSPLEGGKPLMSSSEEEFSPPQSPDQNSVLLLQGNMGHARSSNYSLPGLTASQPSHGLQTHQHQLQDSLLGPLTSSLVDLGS
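AlphaScreen luminescence read after one hour at 37 °C in darkness. Pin-transferred compounds met GST-Six1 and His-Eya2 protein (5X stock 250 nM/500 nM) plus glutathione donor and Ni-chelate acceptor beads (5X, 50 ug/mL).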
TRPML1 agonist: agonists of human TRPML1 channel; TRPML1-expressing cells, Ca2+ dye fluorescence, FDSS; host cell line not named in the record; reference of the full effect not given here; activation, % (test concentration not listed); 0.12% of 410,000 active; in the data active = activation above about 50%; inconclusive = about 30% to 50%; inactive = below about 30%; also: 0% is about no effect; the text of the record puts the active cut at 80%
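Agonist activity was taken from a 110 s kinetic Ca2+ dye read on the FDSS after pinning compounds onto TRPML1-DL cells. The cells were seeded at 1,500/well with Tet inducer, incubated about 16 h, then dye-loaded at room temperature.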
TRPML1 inh: blocks the human TRPML1 channel; TRPML1-inducible cells, Ca2+ dye fluorescence, FDSS; stronger effect = lower value; inhibition of EC80 agonist-evoked calcium signal; Q9GZU1; 0.02% of 390,000 active; activity change, negative = inhibition, % (test concentration not listed); AID 624415; in the data active means activity change below about -50%; inconclusive means about -30% to -50%; inactive means above about -30%;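 also: stimulus is agonist 54-4 at its EC80 concentration; % is scaled to controls: 0 for no effect and ±100 for the full control effect; compound concentration not given in the record; the text of the record puts the active cut at -80%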
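TRPML1-DL cells, Tet-induced overnight (~16 h, 37 °C) at 1,500 cells/well, were loaded with Ca8 no-wash dye plus quencher for 45-90 min at room temperature. Compounds were pinned during FDSS kinetic reading; agonist 54-4 at EC80 (4 uM final) then added.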
CtBP-E1A blk: CtBP/E1A binding inhibition; AlphaScreen GST-E1A/His-CtBP binding, 1536-well; stronger effect = lower value; control for the full effect not named in the record; activity change, % (concentration not given with the values); 0.49% of 340,000 active; in the data active means activity change below about -65%; inconclusive means about -30% to -65%; inactive means above about -30%; also: % is scaled to controls: 0 for no effect and ±100 for the full control effect
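In 5 uL wells, 23 nL compound meets equimolar GST-E1A and His-CtBP (5X stock 125 nM each) for 2 h, 37 °C. Beads (5X, 50 ug/mL) then 1 h, 37 °C, dark.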
D2 potentiator: positive allosteric modulators of human D2 dopamine receptor; P14416; DiscoveRx D2 beta-arrestin cells, luminescence, 90 min; 100% = 57 uM dopamine signal; potentiation, % (test concentration not listed); 0.23% of 360,000 active; AID 624464; active = potentiation of 50% or more; inconclusive = 30% to 50%; inactive = 30% or less;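 also: compound concentration not given in the record; tested on top of an EC20 dose of dopamine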
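PathHunter beta-arrestin assay in DiscoveRx D2 cells. Compounds were added with an EC20 of dopamine (50 nM final) for 90 min at 37 deg C. Luminescence was read 1 h after detection reagent, with 57 uM dopamine as the EC100 control.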
TRPV1 potentiator: human TRPV1 potentiation | Q8NER1 | potentiation, % at 8.33 µM | TRPV1-expressing cells, Fluo-8 calcium influx, capsaicin EC20 potentiation; host cell line not named in the record; control for the full effect not named in the record | 0.02% of 320,000 active; active means potentiation above 80%; inconclusive means 30% to 80%; inactive means below 30%; also: 0% is about no effect
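TRPV1-expressing cells were cultured overnight at 35.5C and loaded with Fluo-8 calcium dye for 40 to 90 min at room temperature. After a 10 s baseline, compound was added and calcium influx was read kinetically for 3 min (ex 480/em 520 nm).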
The depositor's hits bear a star; ? = inconclusive; · = no result given. An unsorted share of the library. About 0.95% of those tested had a hit in this group.

entry	Structure	Six1-Eya2 inh	TRPML1 agonist	TRPML1 inh
1	Cc1cc(C)nc(Oc2ccc(Br)cc2)n1	1	-0.2	0
2	O=C(NCCCN1CCCC1=O)Nc1ccc(Cl)cc1Cl	8	0.1	-4
3	CCOCCCN(C(=O)c1snc(C(N)=O)c1N)C(C(=O)NCCC(C)C)c1ccc(Cl)cc1 (stereo unspecified)	3	1.2	0
4	Cc1ccccc1OCCn1cnc2cc([N+](=O)[O-])ccc2c1=O	?	0.9	-9
5	Cc1ccsc1C(=O)NCC(C)(C)N1CCOCC1	-3	2.8	3
6	Cc1nc2ccccc2c(=O)n1/N=C/c1ccc(O)cc1O	-18	-0.3	6
7	COc1ccc(C(=O)Nc2cccc(C)n2)cc1S(=O)(=O)N1CCCc2ccccc21	-12	4.3	9
8	COc1ccc(NC(=O)N(C)C[C@H]2Oc3ccc(NC(=O)Cn4cnnn4)cc3C(=O)N([C@H](C)CO)C[C@@H]2C)cc1	0	-0.1	0
9	CC(C)c1ncc(S(=O)(=O)c2ccc(C(F)(F)F)cn2)c(N)n1	12	-0.5	3
10	COc1ccc(S(=O)(=O)N(C)C[C@H]2Oc3ncc(-c4ccncc4)cc3C(=O)N([C@@H](C)CO)C[C@@H]2C)cc1	-4	-0.5	1
11	COCC1CCN(C(=O)c2ccc(OC)c(OC3CCN(C(C)C)CC3)c2)CC1	3	-0.3	-12
12	Cc1ccc(S(=O)(=O)Nc2c(C)nc3nc[nH]n3c2=O)c(C)c1	13	-0.2	6
13	N#CCc1cc2ccc3cccc4ccc(c1)c2c34	30	-0.7	42
14	Cc1ccc(CS(=O)(=O)CCC(=O)NCCN2CCCCC2C)cc1 (stereo unspecified)	7	-0.1	4
15	CCN(CC)S(=O)(=O)c1cccc(-c2nn(-c3ccccc3)cc2/C=C(\C#N)C(=O)NCc2ccco2)c1	0	-0.4	6

entry	CtBP-E1A blk	D2 potentiator	TRPV1 potentiator
1	·	-5	0
2	8	-24	26
3	2	-4	8
4	?	-8	3
5	0	-4	?
6	?	2	-8
7	-14	0	·
8	5	-9	·
9	·	-17	-9
10	5	-6	·
11	14	-13	-17
12	0	-3	2
13	·	-22	7
14	1	-6	11
15	1	-7	?

Entries of single compounds from above. Order of screens: Six1-Eya2 inh | TRPML1 agonist | TRPML1 inh | CtBP-E1A blk | D2 potentiator | TRPV1 potentiator
`Cc1ccsc1C(=O)NCC(C)(C)N1CCOCC1` in the list: -3 | 2.8 | 3 | 0 | -4 | ?
`COc1ccc(NC(=O)N(C)C[C@H]2Oc3ccc(NC(=O)Cn4cnnn4)cc3C(=O)N([C@H](C)CO)C[C@@H]2C)cc1` in the list: 0 | -0.1 | 0 | 5 | -9 | ·
`COc1ccc(C(=O)Nc2cccc(C)n2)cc1S(=O)(=O)N1CCCc2ccccc21` in the list: -12 | 4.3 | 9 | -14 | 0 | ·

Continued:
entry	Structure	Six1-Eya2 inh	TRPML1 agonist	TRPML1 inh
16	O=C(O)c1cccc(NS(=O)(=O)/C=C/c2ccccc2)c1	-3	-0.8	3
17	C/C(=N/NC(=O)CNC(=O)c1cccnc1)c1ccccc1	9	·	·
18	CC(C)(C)CN1C(N)=NC[C@H]1Cc1ccc(O)cc1	0	-0.7	-1
19	CCOC(=O)N1CCC(N2CCN(S(=O)(=O)c3ccc(Cl)cc3)CC2)CC1	-1	-0.6	0
20	CC1CCc2c(c3ccccc3[nH]c2=O)O1 (stereo unspecified)	5	2.0	7
21	C=C(C)Cn1c(N(CCO)Cc2ccccc2)nc2c1c(=O)[nH]c(=O)n2C	-3	0.2	-8
22	CCN1C(=O)CC2(C[N+]3(C)CCC2CC3)C1=O (stereo unspecified)	3	0.1	12
23	Cc1ccc(N(C(C)C(=O)Nc2ccc(S(=O)(=O)N3CCOCC3)cc2)S(C)(=O)=O)cc1 (stereo unspecified)	5	1.0	2
24	Cc1ccc(C(NC(=O)c2cccc(S(=O)(=O)N3CCN(C)CC3)c2)c2ccccc2)cc1 (stereo unspecified)	-1	2.2	13
25	Cc1cc(=O)n2nc(N3CCCC(C(=O)N4CCN(c5ccccc5)CC4)C3)sc2n1 (stereo unspecified)	-8	0.6	-25
26	Cc1ccc(NC(=O)CN(C)C(=O)COc2ccccc2-c2ccccc2)cc1	-1	1.6	-2
27	O=S1(=O)CC(N2CCCC2)CN1Cc1cn(Cc2cccc(Cl)c2)nn1 (stereo unspecified)	0	-0.8	·
28	O=C(c1c(Cl)nc2sccn12)N(C(=O)c1c(Cl)nc2sccn12)c1ccc(Cl)cn1	-4	1.7	10
29	Cc1ccc2c(C(=O)CN3CCN(c4ccccc4)CC3)c(C)[nH]c2c1	-12	-0.9	-2
30	O=C(CNC(=O)c1ccco1)OCc1cccc(Cl)c1	-1	1.4	20

entry	CtBP-E1A blk	D2 potentiator	TRPV1 potentiator
16	7	1	2
17	9	-4	7
18	5	-11	-9
19	0	-8	-5
20	3	-11	-7
21	6	1	20
22	0	9	6
23	-7	-4	-12
24	1	1	-6
25	0	10	-5
26	-7	-16	·
27	-2	·	·
28	5	-3	-3
29	-7	-11	-11
30	7	-13	3

Continuation:
entry	Structure	Six1-Eya2 inh	TRPML1 agonist	TRPML1 inh
31	COc1ccc(C(CNC(=O)c2ccc(S(=O)(=O)N(C)C)cc2)N2CCCCC2)cc1 (stereo unspecified)	5	-0.4	-18
32	O=C(Cn1c(=O)oc2ccccc21)NCCc1ccccc1Cl	-5	-0.5	1
33	Cc1ccc(N2CC(C(=O)N3CCc4ccccc4C3)CC2=O)cc1 (stereo unspecified)	5	-0.1	-11
34	O=C(/C=C/c1ccccc1)NC(NC(=S)Nc1ccc(C(=O)O)cc1)C(Cl)(Cl)Cl (stereo unspecified)	?	1.6	8
35	Cc1ccc(C(=O)COC(=O)CCCC(=O)NC2CCCCC2)cc1[N+](=O)[O-]	1	1.1	10
36	O=c1[nH]c2ccccc2cc1CN(Cc1cccnc1)S(=O)(=O)c1ccc(Cl)cc1	-1	-0.3	17
37	O=C(/C=C/c1ccccc1)Nc1ccc(NC(=O)c2cccs2)cc1	4	-0.9	4
38	CN(CC(=O)Nc1c(Cl)cccc1Cl)C(=O)c1sccc1-c1ccccc1	-5	-1.1	-12
39	CC(=O)Nc1ccc(S(=O)(=O)Oc2cccc(/C=N/N=C3/NC(=O)C(CC(=O)O)S3)c2)cc1 (stereo unspecified)	-11	2.4	19
40	S=C(NCCc1cccc(Cl)c1)NC1CCCCC1	9	1.9	-10
41	CCC(C)NC(=O)Nc1ccccc1F (stereo unspecified)	7	0.4	15
42	N#C/C(=C\c1ccc[nH]1)C(=O)Nc1ccccc1Cl	20	1.2	-6
43	CCC(=O)N1CCc2cc(Br)cc(S(=O)(=O)N3CCCC(C(=O)O)C3)c21 (stereo unspecified)	-7	-0.5	-8
44	CC(C)(C)OC(=O)C[C@H]1C/C=C\C[C@@H](CC(=O)N[C@@H](CO)Cc2ccccc2)C(=O)NC[C@H](c2ccccc2)OC1=O	0	-0.5	2
45	O=[N+]([O-])c1ccc(NN=C(c2ccccc2)c2ccccc2)nc1	0	2.0	14

entry	CtBP-E1A blk	D2 potentiator	TRPV1 potentiator
31	0	-4	-3
32	1	-12	-8
33	8	1	0
34	-4	5	26
35	8	-30	-1
36	-2	5	20
37	·	-15	14
38	-4	9	1
39	-8	-2	6
40	0	-32	-9
41	7	-15	-4
42	0	12	3
43	-6	-8	15
44	3	-1	·
45	-1	-15	·

In the list so far, two have fluorine.
entry	Structure	Six1-Eya2 inh	TRPML1 agonist	TRPML1 inh
9	CC(C)c1ncc(S(=O)(=O)c2ccc(C(F)(F)F)cn2)c(N)n1	12	-0.5	3
41	CCC(C)NC(=O)Nc1ccccc1F (stereo unspecified)	7	0.4	15

entry	CtBP-E1A blk	D2 potentiator	TRPV1 potentiator
9	·	-17	-9
41	7	-15	-4

Additional entries:
entry	Structure	Six1-Eya2 inh	TRPML1 agonist	TRPML1 inh
46	O=C(CSc1nnc(CNC(=O)c2cccs2)o1)c1ccc(Cl)cc1	12	0.6	-19
47	CCO[C@@H]1OC(C(=O)N2CCN(C)CC2)=C[C@H](c2ccc(C(F)(F)F)cc2)[C@H]1CCCO	-1	0.3	12
48	COc1ccccc1NC(=O)Cc1ccsc1	1	-0.4	17
49	CC1(C)CN(C(=S)Nc2ccc(F)cc2F)C1=O	4	·	·
50	CN1OC[C@@H]2CN[C@H](c3ccc(-c4ccccc4)cc3)C[C@@H]21	2	0.7	4
51	CNc1cncc(-c2ccc(S(C)(=O)=O)cc2)n1	6	-0.4	·
52	CCC(C)N(C(=O)COC(=O)CCc1c[nH]c2ccccc12)C1CCS(=O)(=O)C1 (stereo unspecified)	-3	-0.2	40
53	Cc1ccc(CNC(=O)c2cc(-c3ccccc3)nn2CC2CC(c3cccc([N+](=O)[O-])c3)=NO2)cc1 (stereo unspecified)	-4	1.0	54
54	COc1ccc(C2(C)NC(=O)N(CC(=O)N3CCc4ccccc43)C2=O)cc1OC (stereo unspecified)	-2	-0.6	7
55	COC(=O)C(C)NC(=O)COc1ccc2ccccc2c1 (stereo unspecified)	-1	0.2	-1
56	Cc1cc(C(C)(C)C)cc(S(=O)(=O)Nc2ccc(O)c(C(=O)O)c2)c1C	-5	-0.1	12
57	Cc1c(C(=O)O)oc2ccc(S(=O)(=O)N3CC(C)CC(C)C3)cc12 (stereo unspecified)	-15	-0.7	22
58	CC(C)(C)C(=O)N1CCN(c2ccc(NC(=O)c3ccc4c(c3)OCCO4)cc2)CC1	-3	-0.2	6
59	O=S(=O)(c1ccc(Cl)nc1)N1CCCC1	7	-0.7	4
60	CC1(C)CC(=O)C2=C(C1)NC(=O)NC2c1ccccc1Cl (stereo unspecified)	1	-0.9	-9

entry	CtBP-E1A blk	D2 potentiator	TRPV1 potentiator
46	0	-17	-12
47	-13	-27	-7
48	0	6	11
49	8	0	-12
50	5	1	·
51	1	-3	·
52	3	-3	10
53	·	0	·
54	2	-1	22
55	8	-7	4
56	0	-15	-1
57	-4	-2	5
58	-21	-2	-5
59	9	-3	·
60	-1	-2	·
